KCNQ2 pot = potentiators of rat KCNQ2 potassium channel; CHO-K1 KCNQ2, FluxOR thallium flux fluorescence; hits give high values; B-score at 10 µM; 310,000 compounds, 0.54% hits;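 active = fluorescence ratio B-score at least 3 SD of library B-scores, with initial fluorescence B-score within 3 SD, cut at about 5.3 in these data; same plate scores as AID 2156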;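 note: B-score of peak minus minimum over baseline fluorescence ratio after K+ and Tl+ stimulus; positive B-score means potentiation of KCNQ2 with more thallium influx and brighter signal; only the inactives scoring about 0 or higher are listed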
Target sequence (O88943 whole entry, looked up): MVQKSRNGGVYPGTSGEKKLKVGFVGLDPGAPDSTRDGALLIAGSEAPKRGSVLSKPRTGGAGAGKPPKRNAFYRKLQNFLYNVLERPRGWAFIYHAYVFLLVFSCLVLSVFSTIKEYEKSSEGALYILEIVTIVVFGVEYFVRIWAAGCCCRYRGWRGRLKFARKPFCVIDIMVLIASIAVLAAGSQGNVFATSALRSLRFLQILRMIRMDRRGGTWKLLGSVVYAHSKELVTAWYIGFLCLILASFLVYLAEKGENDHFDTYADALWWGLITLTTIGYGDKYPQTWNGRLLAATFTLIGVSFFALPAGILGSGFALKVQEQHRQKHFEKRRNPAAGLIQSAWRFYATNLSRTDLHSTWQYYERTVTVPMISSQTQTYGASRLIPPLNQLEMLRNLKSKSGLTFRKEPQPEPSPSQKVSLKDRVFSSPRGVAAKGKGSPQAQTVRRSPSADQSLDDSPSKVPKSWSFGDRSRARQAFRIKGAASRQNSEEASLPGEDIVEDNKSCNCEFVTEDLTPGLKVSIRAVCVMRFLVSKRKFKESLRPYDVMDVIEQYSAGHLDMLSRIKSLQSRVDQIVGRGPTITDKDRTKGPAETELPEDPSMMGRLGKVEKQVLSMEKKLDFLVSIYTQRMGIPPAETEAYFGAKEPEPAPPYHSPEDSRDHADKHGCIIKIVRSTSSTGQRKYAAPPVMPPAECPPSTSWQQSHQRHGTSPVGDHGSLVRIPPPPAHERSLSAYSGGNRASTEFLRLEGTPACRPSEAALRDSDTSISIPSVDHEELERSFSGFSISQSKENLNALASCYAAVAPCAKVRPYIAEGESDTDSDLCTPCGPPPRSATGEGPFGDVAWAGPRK
KCNQ2 pot baseline = further read-out of KCNQ2 pot, marked with its call; B-score; compound at 10 µM; measured here: initial fluorescence intensity artifact check;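 brightness before thallium and not channel activity; 0 = typical well and far values either way flag optical interference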
Numbers without * were called inactive. The list is partial; count on the stated rates, not on these rows.

SMILES | KCNQ2 pot | KCNQ2 pot baseline
Cc1ccc(/C=N/n2c(C3CCCCC3)n[nH]c2=S)cc1 | 1.5 | -0.1
COCCNc1nc(SCc2ccccc2)nc2sc3c(c12)CCC3 | 0.52 | 0.78
CCCCNC(=O)CCCCCn1c(=O)[nH]c2cc(C(=O)OC)ccc2c1=O | 0.66 | 2
COc1ccc(CCNC(=O)CCC2COc3ccccc3O2)cc1OC (stereo not given) | 1.4 | -1.2
COc1ccc(CN2C(=O)c3cccnc3C2=O)cc1S(=O)(=O)NC1CCCCC1 | 0.08 | -2
CCOC(=O)C1=C(CS(=O)(=O)c2ccccc2)NC(=O)NC1c1ccc(OC)c(OC)c1 (stereo not given) | 0.01 | -0.94
CC(C)(C)C(=O)CSc1nnc(-c2cccs2)n1CC1CCCO1 (stereo not given) | 0.55 | -1.1
Cc1ccccc1C(=O)Nc1ccc(C(=O)N/N=C/c2ccncc2)cc1 | 0.27 | -2.2
CC(C)(C)c1cc(C(=O)N/N=C/c2cc3c(cc2Br)OCO3)n[nH]1 | 0.29 | -1.3
Cc1ccc(NC(=O)c2c(C(F)(F)F)nn(C)c2Cl)cc1C | 0.43 | -1.3
O=C(c1coc2ccc(O)cc12)C1CC1 | 0.16 | 0.78
O=C(CN(C1CCCCC1)S(=O)(=O)c1ccc(F)cc1)NCCCO | 1.3 | -1.6
COC(=O)[C@H](Cc1c[nH]c2ccccc12)NC(=O)NCc1ccc(OC)c(OC)c1 | 1 | 0.68
CCC(=O)c1ccc(N2CCN(C(=O)c3ccc(F)cc3)CC2)c(F)c1 | 0.44 | -0.9
CSc1ncc2c(=O)[nH]c(-c3ccccc3)nc2n1 | 1 | -0.09
COC(=O)c1cc(OC)c(OC)cc1NC(=S)N1CCN(C/C=C/c2ccccc2)CC1 | 0.95 | -0.85
CCc1ccc(NC(=O)c2ccc3ncsc3c2)cc1 | 0.43 | 0.27
O=C(NCN1CCc2ccccc2C1)c1cnccn1 | 1.5 | 0.06
CCOc1ccc(C2NC(=O)NC(C)=C2C(=O)OC)cc1C (stereo not given) | 0.06 | -1.2
COc1cc(NC(=O)COn2nnc3ccc(S(C)(=O)=O)cc32)cc(OC)c1 | 1.1 | 0.84
O=C(NCCc1ccccc1)C1CCN(S(=O)(=O)N2CCC3(CC2)OCCO3)CC1 | 1.4 | 0.2
O=C(N/N=C/c1ccc(Br)o1)c1cccnc1 | 0.01 | 1.8
C/C(=N\NC(=O)CNc1cccc(Cl)c1C)C1CC1 | 0.52 | 0.01
CC1CCC(NC(=O)Cn2c(=O)oc3ccccc32)CC1 (stereo not given) | 0.3 | 1.2
CS(=O)(=O)c1ccc2nc(NC(=O)c3ccc(N4CCCC4=O)cc3)sc2c1 | 0.91 | -0.98
N/C(=N\OC(=O)c1ccc(Cl)cc1)c1ccn[nH]1 | 1.6 | 0.74
CC(=O)c1ccc(N2CCN(CC(O)c3ccccc3)CC2)cc1 (stereo not given) | 0.02 | 0.07
O=C(Cn1c(=O)oc2cc(S(=O)(=O)N3CCCCCC3)ccc21)NC1CCCCCCC1 | 0.54 | -0.48
COc1ccc(NC(=O)CCS(=O)(=O)c2ccccc2Cl)cc1S(=O)(=O)Nc1ccc(Cl)cc1 | 1.1 | -0.09
Cc1cccc(CSc2nnc(C)c(=O)n2N)c1 | 1.8 | -1.5

Complete entries from above.
CS(=O)(=O)c1ccc2nc(NC(=O)c3ccc(N4CCCC4=O)cc3)sc2c1 is entered as KCNQ2 pot: 0.91; KCNQ2 pot baseline: -0.98
Cc1cccc(CSc2nnc(C)c(=O)n2N)c1 is entered as KCNQ2 pot: 1.8; KCNQ2 pot baseline: -1.5

Other results follow.
SMILES | KCNQ2 pot | KCNQ2 pot baseline
CCN(CC)C(=O)C1CCN(Cc2ccc(OCc3ccccc3)cc2)CC1 | 1.2 | -0.73
COCCN1C(=O)N[C@@H](c2cccc(C(F)(F)F)c2)[C@H](C(C)=O)[C@H]1C | 1.4 | 1.9
O=c1cc(-c2ccc(O)cc2)oc2cc(O)cc(O)c12 | 0.99 | -2.4
CCc1ccc(C(=O)COC(=O)c2ccc(Cl)nc2)cc1 | 0.65 | -0.16
CCN(CC)c1ccc(/C=N/N2CCN(c3ccccn3)CC2)cc1 | 0.54 | 1.3
C=CCn1c(SCC(=O)NCC2CCCO2)nc2sc(C)c(C)c2c1=O (stereo not given) | 1.1 | -1.4
COc1nc(Nc2ccc3c(c2)OCO3)nc(OC)n1 | 0.22 | -0.31
O=C(Cc1ccc(Cl)cc1)Nc1cccc2ncccc12 | 0.68 | 3.5
CNc1nnc(-c2ccc(C)cc2)c2ccccc12 | 1.7 | -1.3
CC(=O)c1ccc(NC(=O)CCC(=O)N2CC(C)Oc3ccc(C)cc32)cc1 (stereo not given) | 0.14 | -0.79
CCCC(=O)N(CC(=O)Nc1sc(C)c(C)c1C(N)=O)Cc1ccccc1 | 0.74 | 1.2
O=C(Nc1cccnc1)c1ccc2c(c1)C(=O)N(Cc1cccnc1)C2=O | 2.1 | -3.8
CCN(CC)CCN(C)c1ccc(N2C(=O)C3CC=CCC3C2=O)cc1[N+](=O)[O-] (stereo not given) | 0.98 | -0.56
NC(=O)c1ccccc1Nc1nc(NCCO)nc(N2CCCC2)n1 | 0.51 | -1
O=C(Nc1ccc(F)c(F)c1)c1cc(S(=O)(=O)N2CCN(c3ccccn3)CC2)ccc1F | 0.94 | -2.3
COCC(=O)Nc1ccccc1C#N | 0.4 | 0.71
CCCCCCCCCCCC(=O)c1c(O)cccc1O | 1.1 | -1.4
CCOCCCNC(=S)NCCNc1nc2c(C)cccc2cc1C#N | 0.31 | -0.11
O=[N+]([O-])c1cccc(NN=Nc2ccccc2)c1 | 0.89 | 0.82
COc1ccc(C2=NS(=O)(=O)N(C)C(C(=O)NCc3ccc4c(c3)OCO4)=C2)cc1 | 2.5 | 1.6

Two records picked at random from those above, as already listed:
SMILES | KCNQ2 pot | KCNQ2 pot baseline
CCCC(=O)N(CC(=O)Nc1sc(C)c(C)c1C(N)=O)Cc1ccccc1 | 0.74 | 1.2
CCOCCCNC(=S)NCCNc1nc2c(C)cccc2cc1C#N | 0.31 | -0.11

The results go on:
SMILES | KCNQ2 pot | KCNQ2 pot baseline
COc1cc(OC)cc(C(=O)NCCNC(=O)c2ccccn2)c1 | 0.08 | 0.13
Clc1cccc(-c2ccc(C=Nc3ccc(N4CCOCC4)cc3)o2)c1 | 1.9 | -1.4
CC(C)CN(C1CCS(=O)(=O)C1)S(=O)(=O)c1ccc2ccccc2c1 (stereo not given) | 1.2 | -0.01
CC(C)OC(=O)CCC1(C(=O)O)CCC(=O)NC1 (stereo not given) | 0.99 | 1.3
CCc1ccc(/C=C2/SC(=S)N(CC(=O)Nc3nc4ccccc4s3)C2=O)cc1 | 1.6 | -0.9
Cc1cn(S(=O)(=O)c2ccccc2[N+](=O)[O-])cn1 | 0.34 | 1.3
CN1CCN(c2nc3c(c(=O)[nH]c(=O)n3C)n2Cc2ccc([N+](=O)[O-])cc2)CC1 | 0.11 | 0.93
COc1ccc(-n2ncc3c(N4CCC(C(N)=O)CC4)ncnc32)cc1 | 1.3 | 2.7
Cc1cc(C)c2c(C)c(C(=O)NCc3ccncc3)oc2c1 | 1.1 | -0.41
O=C(CNCC1CCCO1)Nc1ccc(N2CCCCCC2)cc1 (stereo not given) | 0.03 | -1.8

Some of these compounds in order of the KCNQ2 pot value, high to low:
| compound | KCNQ2 pot |
| --- | --- |
| CCc1ccc(/C=C2/SC(=S)N(CC(=O)Nc3nc4ccccc4s3)C2=O)cc1 | 1.6 |
| CC(C)CN(C1CCS(=O)(=O)C1)S(=O)(=O)c1ccc2ccccc2c1 (stereo not given) | 1.2 |
| CN1CCN(c2nc3c(c(=O)[nH]c(=O)n3C)n2Cc2ccc([N+](=O)[O-])cc2)CC1 | 0.11 |

The list continues.
SMILES | KCNQ2 pot | KCNQ2 pot baseline
CC(O)CNc1nc(Cl)c(C#N)s1 (stereo not given) | 0.56 | 0.38
COC(=O)c1cc2c(C)nn(C)c2s1 | 0.95 | -0.65
Cc1c(C)c2c(OCC(=O)Nc3cccnc3)cc3c(c2oc1=O)CCC(C)(C)O3 | 1.3 | -0.74
CC(=O)Nc1ccc(NC(=O)c2ccc(NS(=O)(=O)c3cc(C(C)(C)C)cc(C)c3C)cc2)cc1 | 0.61 | -3
CCc1ccc(OCC(=O)Nc2nnc(C3CCCC3)s2)cc1 | 0.07 | -0.19
CCCc1nccn1S(=O)(=O)c1cc(OC)ccc1OC | 0.69 | -0.81
Cc1ccc(S(=O)(=O)N2CCC(C(=O)NNC(=O)c3ccccc3)CC2)cc1 | 1.4 | -0.45
O=C(CCS(=O)(=O)Cc1ccccc1F)NCCCN1CCCCC1 | 2.1 | -2.5
CN(C)c1nnnn1-c1ccc(OC(F)(F)F)cc1 | 0.6 | 2
CCOc1ccc(OCC(=O)N2CCOCC2)cc1 | 0.92 | -0.52

Next section; it opens with the 2 that closed the last part.
SMILES | KCNQ2 pot | KCNQ2 pot baseline
CN(C)c1nnnn1-c1ccc(OC(F)(F)F)cc1 | 0.6 | 2
CCOc1ccc(OCC(=O)N2CCOCC2)cc1 | 0.92 | -0.52
COc1ccc(NC(=O)CSc2nnc(C3CC3)n2C)cc1 | 0.23 | -0.57
CCCCC(c1nnnn1Cc1ccco1)N1CCN(C(=O)c2ccco2)CC1 (stereo not given) | 1.4 | -1.5
CCS(=O)(=O)c1ccc2oc(Nc3ccc(OC)c(OC)c3)nc2c1 | 0.47 | -0.39
Cc1ccnc(SCCn2c(N3CC(C)CC(C)C3)nc3c2c(=O)n(C)c(=O)n3C)n1 (stereo not given) | 0.04 | -0.53
Cc1ccc(/C=N/NC(=O)NC2CCCCC2)o1 | 0.28 | 1.4
N#C/C(=C\c1ccncc1)c1ccc(NC(N)=O)cc1 | 1.1 | -1.2
COc1ccc(CCN2C(=NC(=O)CCC(=O)O)SC3CS(=O)(=O)CC32)cc1OC (stereo not given) | 0.69 | 0.01
CCOC(=O)c1[nH]c(COC(=O)CCOc2ccccc2OC)c(C(=O)OCC)c1C | 0.27 | 3.6
CS(=O)(=O)N(Cc1ccc(C(=O)NN=C2CCCCCC2)cc1)c1ccccc1 | 0.73 | 0.19
CCC(=O)N1CCc2cc(S(=O)(=O)CCC(=O)O)ccc21 | 0.88 | -0.36
CC(C)(C)C(=O)CSc1nccc(=O)[nH]1 | 0.11 | 1.4
Cn1cnc(S(=O)(=O)Nc2cc(-c3ccc(Cl)cc3)nn2C)c1 | 0.4 | 0.08
COC(=O)c1ccc(NC(=O)C(=O)N2CCN(C(=S)Nc3ccc(C)cc3)CC2)cc1 | 1.3 | 0
O=C(NCCC(=O)N1CCN(S(=O)(=O)c2ccccc2)CC1)c1ccc(Br)cc1 | 1.3 | -0.1
CC(C)Cc1nnc(NS(=O)(=O)c2ccc([N+](=O)[O-])cc2)s1 | 0.37 | -2.1
Cc1cc2c(OCC(O)CN3CCCC3)cccc2[nH]1 (stereo not given) | 0.05 | -1.1
O=C(Sc1ccc(Cl)cc1)c1cccc(Cn2cc(C(F)(F)F)ccc2=O)c1 | 0.15 | 0.17
COc1cc(CN2CCN(C(=O)CC(C)C)CC2)cc(OC)c1O | 0.84 | -0.01
O=C(CN1CCS(=O)(=O)CC1)NNC(=O)C1CCCCC1 | 0.1 | -1.3
O=c1[nH]c2ccccc2cc1CN(CC1CCCO1)S(=O)(=O)c1ccccc1 (stereo not given) | 0.82 | 0.16
Cc1cc(NS(=O)(=O)c2ccc(NC(=O)c3cc4c(=O)n5ccccc5nc4s3)cc2)nc(C)n1 | 0.32 | -0.56
O=S(=O)(c1ccc(OCC(O)CN2CCN(c3ccccc3Cl)CC2)cc1)N1CCOCC1 (stereo not given) | 0.67 | 0.11
N#C/C(=C\c1cccc(O)c1)c1nc2ccccc2o1 | 1.4 | -1.7
CCC(=O)c1ccc(OCC(=O)OCC(=O)NC2CCCCCC2)cc1 | 1.7 | -0.6
Cc1ccc(OCC(=O)NCCNC(=O)COc2ccc(C)cc2)cc1 | 1 | -3.4
Cc1cc(C)nc(N/N=C/c2cn[nH]c2-c2ccc(F)cc2)n1 | 1.4 | 0.67
CCO[C@@H]1OC(C(=O)NCc2nc3ccccc3[nH]2)=C[C@H](c2ccccc2)[C@H]1CCCO | 1.2 | -0.1
CC(=O)NCc1ccc(S(=O)(=O)N/N=C/c2ccc(Br)cc2)cc1 | 2.2 | -0.68
O=C(Nc1cccc(C(F)(F)F)c1)c1cc2c(=O)c3ccccc3oc2nc1C(F)(F)F | 0.18 | -0.8
COc1cc(C2C(C(=O)c3ccc(C)o3)=C(O)C(=O)N2Cc2cccnc2)ccc1O (stereo not given) | 0.57 | 1.7
COC(=O)C(C(=O)OC)c1ncccc1[N+](=O)[O-] | 1.5 | 0.56
O=C(/C=C1\SC(=O)N(CC(=O)Nc2ccc(Cl)cc2)C1=O)Nc1ccc(F)cc1 | 1.3 | -0.15
CCCc1nc(NCc2ccc3c(c2)OCO3)c2nnn(Cc3ccccc3Cl)c2n1 | 0.06 | 0.59
CCN(CC)c1ccc(/C=C(\C#N)C(N)=S)cc1 | 0.31 | 2
CCC(COC(C)=O)Nc1nc2c([nH]1)c(=O)n(C)c(=O)n2C (stereo not given) | 0.03 | 1.5
CCCCN(C(=O)/C=C/c1ccco1)c1c(N)n(Cc2ccccc2)c(=O)[nH]c1=O | 0.39 | 0.59
COc1ccc(C2=NCC(CSc3nnc(-c4ccc5c(c4)OCO5)o3)S2)cc1 (stereo not given) | 0.31 | -1.6
O=C(c1ccc(S(=O)(=O)N2CCOCC2)cc1)N1CCN(c2cccc(Cl)c2)CC1 | 0.37 | 1.8
CC1CCCN(CCCNC(=O)c2coc3nc4ccccc4nc23)C1 (stereo not given) | 0.64 | -0.69
Cn1c(=O)c2c(nc(NCCc3ccccc3)n2CC(=O)NCCc2ccccc2)n(C)c1=O | 0.64 | -1.2
O=C(COc1ccccc1)Nc1nnc(-c2ccco2)o1 | 0.01 | -0.44
Cc1ccc(O)c(Cn2nnc3ccccc32)c1 | 1.5 | 0.32
CN(Cc1ccccc1)S(=O)(=O)c1cccc2cccnc12 | 1.3 | -2.2
CC[n+]1ccc(C(=O)NCc2ccccc2)cc1 | 0.17 | -0.66
C#CCN(CC=C)C(=O)c1ccc2nc(C3CCCCC3)oc2c1 | 0.26 | -0.69
